# Ecoli growth: inhibitors of Escherichia coli growth; OD600, 23 h; active compounds read low; 0.21% of 330,000 active; OD600 absorbance (concentration not given with the values); AID 1053175;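 active = OD600 absorbance below the run mean of sample wells minus 3.6 SD, in any replicate, cut at about 0.56 in these data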;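 also: stock transfer was 300 nL into about 60 µL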
# LANA-H2A inh: blocks KSHV LANA binding to histone H2A/H2B | AID 2629 | inhibition, % (test concentration not listed) | 0.6% of 320,000 active | cell-free LANA-H2A/H2B peptide, fluorescence polarization; in the data active = inhibition mostly above about 10%, no sharp cut-off; inactive = mostly below about 6.7%;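 also: stock transfer was 7.5 nL into about 10 µL; 0% = median of vehicle wells and 100% = median of positive control wells; one replicate is shown; the record names a cut of 25% in any replicate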
# Target sequence (Q9QR71 whole entry, looked up): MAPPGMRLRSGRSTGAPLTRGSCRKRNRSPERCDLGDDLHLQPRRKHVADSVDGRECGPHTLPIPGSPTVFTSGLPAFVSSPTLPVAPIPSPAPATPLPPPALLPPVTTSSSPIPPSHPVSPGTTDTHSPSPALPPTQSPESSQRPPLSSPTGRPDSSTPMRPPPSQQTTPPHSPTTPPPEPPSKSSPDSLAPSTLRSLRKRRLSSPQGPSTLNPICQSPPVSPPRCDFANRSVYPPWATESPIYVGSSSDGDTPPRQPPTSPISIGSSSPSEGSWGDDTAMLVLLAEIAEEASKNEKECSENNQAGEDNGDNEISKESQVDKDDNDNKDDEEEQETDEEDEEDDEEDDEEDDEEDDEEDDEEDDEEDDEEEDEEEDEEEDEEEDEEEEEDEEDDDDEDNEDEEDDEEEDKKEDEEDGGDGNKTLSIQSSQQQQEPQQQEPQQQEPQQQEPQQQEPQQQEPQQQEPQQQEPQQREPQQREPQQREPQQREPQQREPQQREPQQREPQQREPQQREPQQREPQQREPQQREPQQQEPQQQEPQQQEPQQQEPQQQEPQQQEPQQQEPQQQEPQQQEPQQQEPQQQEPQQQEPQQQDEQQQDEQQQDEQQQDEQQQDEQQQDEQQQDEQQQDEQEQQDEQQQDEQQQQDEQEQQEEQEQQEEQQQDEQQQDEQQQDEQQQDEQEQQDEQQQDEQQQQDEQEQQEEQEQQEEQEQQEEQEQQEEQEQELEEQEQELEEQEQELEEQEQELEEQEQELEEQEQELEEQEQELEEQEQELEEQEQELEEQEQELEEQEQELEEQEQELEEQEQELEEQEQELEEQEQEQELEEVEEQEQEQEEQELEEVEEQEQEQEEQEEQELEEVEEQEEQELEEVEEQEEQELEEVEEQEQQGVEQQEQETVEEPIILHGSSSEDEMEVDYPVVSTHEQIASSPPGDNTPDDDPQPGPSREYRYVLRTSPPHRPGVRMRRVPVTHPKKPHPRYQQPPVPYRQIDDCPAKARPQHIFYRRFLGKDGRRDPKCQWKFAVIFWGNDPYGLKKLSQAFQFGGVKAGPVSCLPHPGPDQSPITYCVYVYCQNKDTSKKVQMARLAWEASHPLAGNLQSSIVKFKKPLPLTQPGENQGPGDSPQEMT
# Vif A3G: HIV-1 Vif–A3G interaction blockers – biochemical, TR-FRET, GST-Vif 1-94, biotin-A3G peptide, dose response retest, primary screen (AID 1117319); TR-FRET GST-Vif / biotin-A3G peptide binding; higher % means a stronger effect; test concentration not given here; strong numbers were not always called active; one-dose inhibition, %; IC50 in µM for titrated hits; 0.57% of 260,000 active;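 active = above the screen mean plus three standard deviations and confirmed in dose response; inconclusive = results disagree or hit not tested in dose response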;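 also: Vif residues 1-94 fused to GST binding biotinylated APOBEC3G peptide 110-148; 0% = full assay without inhibitor and 100% = GST in place of GST-Vif; retest series ran down from 100 µM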
# A1 inh: inhibitors of the anti-apoptotic protein A1, read as caspase activation; MEF A1-2A-BIM cells, Caspase-Glo 3/7 luminescence, 3 h; percent of clofoctol response, vehicle zero; caspase activation, % (test concentration not listed); 0.066% of 330,000 active; AID 2462;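 active = over half of replicate activation scores above 10%, or exactly half above 10 with the replicate mean above 10; inconclusive = replicate mean below 10 yet half the replicates above 10; inactive = over half of replicates below 10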;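 also: wells of about 30 µL received 50 nL stock; many hits fall short of the cut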
# HNF4A DNA FP: change in binding of human HNF4 alpha to DNA. activity change, % at 10 µM. 0.3% of 360,000 active. AID 1224865. HNF4a-FITC DNA binding, fluorescence polarization, 1 h. P41235; in the data active = activity change above about 30%, passing the limit was not always enough;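 also: controls were the assay level and a saturating level of protein; the project sought stronger binding though the title names inhibitors; some compounds called inactive have numbers as strong as hits; positive values seem to mean higher polarization but the record does not say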
# UCH37 inh: human UCH37 deubiquitinating enzyme inhibition. inhibition, % (test concentration not listed). 0.33% of 330,000 active. purified proteasome/UCH37, Ub-AMC cleavage fluorescence. Q9Y5K5;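 active = mean of two replicates above 20%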;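 also: 0% = compound-free wells with enzyme and 100% = wells lacking proteasome; stock transfer was 100 nL into about 20 µL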
#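 system = Proteasome-associated human UCH37 deubiquitinase | amount = 0.15 nM proteasome as dispensed | medium = pH 7.4 Tris-HCl (50 mM) with ovalbumin, ATP-MgCl2, DTT | incubation = 30 min preincubation with enzyme, 25 min cleavage at room temperature | detection = AMC fluorescence 355/460 nm | read-out basis = percent inhibition | controls = no-proteasome and no-compound wells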
# Beta2AR agonist: activates human beta-2 adrenergic receptor causing internalization. Am2.2-beta2AR cells, FAP receptor internalization, flow cytometry; reference of the scale not given here. 0.43% of 340,000 active. response, % (no concentration beside the values). P07550;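 active = response above a set limit, near 3 SD of response in nonfluorescent compounds, cut at about 42% in these data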;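 also: stock transfer was 100 nL into about 11 µL; a reference agonist was the positive control; negative values mostly stem from fluorescent compounds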
# * marks the source's active call; other numbers are inactive results; ? = inconclusive; nt = no result given; & = joins results of further samples. Hits appear at their usual frequency (roughly 2.1% active in at least one column).
SMILES,Ecoli growth,LANA-H2A inh,Vif A3G,A1 inh,HNF4A DNA FP,UCH37 inh,Beta2AR agonist
COc1ccc(CCC(=O)N2CCN(S(=O)(=O)c3ccc(C)cc3)CC2)cc1,0.698,-1.8,nt,0.4,-1.8,0.7,0.2
Cc1c(C)c2c(C)nn(-c3ccccc3)c2[nH]c1=O,0.693,5.1,-1.9%,-0.6,-8.8,0.3,-5.7
COc1ccc(C(=O)N2CCC3(CC2)NCCc2[nH]cnc23)cc1OC,0.72,3.3,nt,0.5,-4.5,1.8,-2.5
O=C(O)c1ccc2c(c1)C(=O)N(c1cc(C(=O)O)ccc1Br)C2=O,0.701,2.8,3.2%,-0.5,-0.3,3.9,3.9
COc1cc(C(=O)N2CCN(Cc3ccc4c(c3)OCO4)CC2)cc(OC)c1OC,0.637,3.8,nt,1.5,2.9,1.4,6.0
CCOC(=O)C1=NOC2C(=O)N(c3ccc(Cl)cc3Cl)C(=O)C12 (stereo not given),0.699,1.2,-0.1%,-0.4,1.8,-1.7,-8.0
CCOC(=O)C1=C(C)Nc2ncnn2C1c1ccc(N(C)C)cc1 (stereo not given),0.696&0.675,1.3,0.2%&2.5%,-0.1,2.4&-1.1,-1.2&3.7,-5.8&-10.8
CCN1CCN(C(=O)c2ccc3c(=O)n(C4CCCC4)c(=S)[nH]c3c2)CC1,0.688,-5.9,15.3%,0.0,7.4,2.5,-1.9
COc1ccc2c(c1)C(=O)OC2CC(=O)O (stereo not given),0.734,-3.6,3.2%,0.1,-4.9,-0.9,-5.8
CCCNC(=O)CCn1c(=S)oc2ccccc21,0.714,2.4,3.4%,-0.7,1.4,-1.8,-6.1
CC(C)C(NS(=O)(=O)c1ccc2c(c1)oc(=O)n2C)C(=O)N1CCN(C2CCCCC2)CC1 (stereo not given),0.694,-0.8,-10.6%,-0.4,4.8,3.1,-13.9
N#Cc1nc(COc2ccccc2F)oc1NCc1ccc(F)cc1,0.701,-4.1,-3.5%,-0.1,1.9,6.4,-5.1
CC(=O)Nc1cccc(C(=O)N2CCN(S(=O)(=O)Cc3ccccc3)CC2)c1,0.66,-7.1,-4.0%,-1.0,1.5,2.7,-3.8
CC(=O)N1CCc2cc(S(=O)(=O)NCC(=O)NCc3ccc(Cl)cc3)ccc21,0.721,-4.6,nt,-0.8,1.6,2.8,-9.1
O=C(CCN1C(=O)C2C3C=CC(C3)C2C1=O)N1CC(=O)N(CCc2ccccc2)C(=O)C1 (stereo not given),0.781,-3.8,8.5%,-0.6,-0.3,3.5,4.4
Cc1ccc(CNC(=O)CC(C)S(=O)(=O)c2ccc3c(c2)NC(=O)CS3)o1 (stereo not given),0.665,-0.7,nt,-0.1,0.6,2.5,11.1
CN(C)c1cccc(C(=O)NNC(=O)C23CC4CC(CC(C4)C2)C3)c1,0.71,-1.4,nt,0.6,-2.7,0.0,6.5
COc1cc2c(cc1OC)C(C)N(C(=O)c1cc3c(=O)oc4ccc(C)cc4c3s1)CC2 (stereo not given),nt,3.3,17.5%,-0.1,2.3,nt,-1.9
O=C(CSc1ncn[nH]1)Nc1ccc(Cl)c(S(=O)(=O)N2CCOCC2)c1,0.672,-0.6,-3.1%,-0.6,6.2,-2.7,0.8
CCCCC(CC)CNC(=O)C(=O)c1ccccc1NC(C)=O (stereo not given),0.658,-1.5,-6.6%,1.0,2.3,2.2,-13.0
Cc1csc(SCC(=O)Nc2ccc3c(c2)OCCO3)n1,0.702,-0.7,nt,-1.6,-3.6,1.5,-3.7
CCC(c1nnc(SCC(=O)Nc2ccc(C(=O)N(C)C)cc2)n1Cc1ccccc1)N(C)C (stereo not given),0.664,1.7,nt,1.9,-4.2,0.6,-4.8
O=C1N[C@@H](Cc2ccccc2)COC(=O)[C@H](Cc2ccc(F)cc2)CC/C=C/C[C@@H]1CC(=O)N(CCO)Cc1ccccc1,nt,-5.3,nt,0.2,-0.9,-1.3,0.3
O=C1C=C(c2ccc3c(c2)OCO3)C[C@@H](c2ccc(Cl)cc2)C1,nt,5.5,nt,-1.3,2.1,1.1,3.4
COC(=O)c1c(C)oc(C)c1S(=O)(=O)Nc1ccccc1,0.675,-5.1,1.7%,?,-1.7,-0.5,2.9
O=C(NCc1ccc2c(c1)OCO2)C(=O)Nc1ccccc1,0.708,-4.0,-8.9%,-0.2,0.7,0.0,-0.1
COc1ccc(OC)c(S(=O)(=O)N2c3cc(F)ccc3CCC2C)c1 (stereo not given),0.629,-3.8,15.7%,0.3,2.4,1.0,4.3
CCC(C)NC(=O)c1cccc(C)c1 (stereo not given),0.66,-0.3,-8.8%,-0.4,-1.5,4.1,4.9
Cc1cccc(C(=O)NCC(=O)OCC(=O)N(C)CC(=O)Nc2ccccc2Cl)c1,0.69,-3.6,-6.4%,-0.2,-1.1,0.4,6.1
COc1ccccc1C(=O)C1CCCN(C(=O)c2cccnc2SC)C1 (stereo not given),0.729,-6.9,4.5%,-0.4,1.6,5.0,-2.8
COc1ccc(S(=O)(=O)N2CCC(C(=O)NCCN3CCOCC3)CC2)cc1,0.679,0.8,nt,1.0,2.0,1.6,-9.6
Cc1ccc(Nc2nc(-c3ccccc3)cs2)nc1,0.681,-1.3,4.0%,-7.7,3.4,2.7,2.6
Cc1cccc(C)c1OCC(=O)N/N=C/c1cccn1C,nt,-4.7,0.1%,2.1,-4.4,nt,3.9
Cc1ccc(S(=O)(=O)NNC(=O)Nc2ccc(Cl)c(Cl)c2)cc1,0.671,-117.6,-3.8%,0.0,-8.1,3.3,-5.5
COc1cc2c(C(=O)NCc3ccc(C)o3)cn(CC(C)C)c(=O)c2cc1OC,0.715,0.5,-6.3%,-0.2,3.5,3.6,8.9
N#CC1(c2nc3ccccc3[nH]2)CC1c1ccc2c(c1)OCO2 (stereo not given),0.687,1.1,?,-3.3,3.9,1.9,-9.6
O=C(NC1CC1)C1=C[C@@H](C2CC2)C[C@@H](OCc2ccc(CO)cc2)O1,nt,2.4,-2.0%,-1.0,-2.0,-0.1,-3.2
Cc1cccc(C(=O)NC2CCN(S(=O)(=O)c3ccccc3)CC2)c1,0.686,1.6,16.2%,0.6,-6.2,-0.2,0.4
CCNC(=S)N1CCn2c(nc3ccccc32)C1,0.655,1.8,nt,0.6,-1.1,2.7,-5.7
Cc1ccc(C)c(-c2csc(N/N=C/c3ccco3)n2)c1,nt,-3.3,25.7%,0.3,0.6,nt,4.9
COc1ccc2c(c1)CCc1c(C(=O)NC3CCCCC3)noc1-2,0.691,1.0,-1.1%,?,1.0,-1.1,-9.6
Fc1ccccc1-c1n[nH]c(=S)n1C1CC1,nt,-3.9,nt,0.8,2.8,nt,-0.4
Cc1ccc(N(Cc2cc3ccc(C)cc3[nH]c2=O)C(=O)c2cccs2)cc1,0.702,8.4,-34.2%,0.4,nt,-12.2,nt
CCCCN(CC)CCCNC(=O)Cn1nc(Cc2ccncc2)c2ccccc2c1=O,0.676,nt,-5.9%,nt,3.5,2.9,1.3
COc1ccc(N2CC(C(=O)N3CCCC(C)C3)CC2=O)cc1 (stereo not given),0.703,0.2,3.1%,-0.1,1.8,0.8,-1.5
Cc1cc(C)c2nc(N3CCCC(C(=O)NCCCN4CCOCC4)C3)sc2c1 (stereo not given),0.706,3.3,-1.1%,0.4,-3.2,0.1,4.3
COC(=O)CCc1nc2cc(Cl)ccc2n(Cc2ccccc2)c1=O,0.693,-3.1,-6.3%,0.8,-2.0,-5.4,9.8
CCOC(=O)C1(CCOC)CCN(Cc2ccc(C(=O)OC)cc2)CC1,0.644,-1.7,3.6%,-0.4,2.0,-1.3,2.3
CCOc1cc(S(=O)(=O)NCC2OCCc3ccccc32)c(OCC)cc1-n1cnnn1 (stereo not given),0.695,-7.2,17.9%,-0.2,1.1,-0.2,-4.8
Cc1ccc(CSCC(=O)NCc2ccco2)cc1,0.718,5.0,17.8%,0.0,-0.5,4.8,0.6
# Continuation:
SMILES,Ecoli growth,LANA-H2A inh,Vif A3G,A1 inh,HNF4A DNA FP,UCH37 inh,Beta2AR agonist
CC(=O)N(c1ccc2oc(=O)sc2c1)S(=O)(=O)c1cccs1,0.721,1.6,8.1%,-0.7,-0.7,5.4,11.0
Cc1cc(NC(=O)c2cccs2)ncc1NC(=O)C(C)C,0.685,-2.2,nt,-10.3,-2.6,0.2,4.3
O=C(/C=C\c1ccco1)NC(=S)Nc1ccccc1O,0.715,5.4,32.7%,-1.0,4.8,6.8,1.0
O=C(COC(=O)c1cc([N+](=O)[O-])ccc1N1CCOCC1)Nc1cccc(F)c1,0.68,2.9,nt,0.4,12.7,5.5,-7.2
COc1ccc(CSc2nc(C)cc(C)c2S(C)(=O)=O)cc1,0.728,-0.9,-0.8%,-0.2,-0.2,-0.3,-2.9
CCOc1ccc(N(CC(=O)NCc2ccc(OC)cc2)S(C)(=O)=O)cc1,0.703,1.3,nt,0.4,-3.8,1.2,1.1
COCCN(C(=O)COC(=O)C1(c2ccccc2)CC1)c1c(N)n(CC(C)C)c(=O)[nH]c1=O,0.664,4.7,0.4%,-0.2,2.7,0.9,1.4
O=C(Nc1nc2c(ccc3ccccc32)s1)c1ccco1,0.65,1.5,-8.5%,-1.2,3.8,-59.7,2.7
Cc1ccccc1C(=O)N(C)c1ccccc1C(=O)NCc1ccccc1,0.685,-3.5,1.9%,0.4,-1.3,0.1,5.7
OCCNc1ncnc2c1nnn2Cc1ccccc1,0.629,nt,-4.4%,nt,2.1,0.9,3.0
Nc1c(C=C2C=CC(=O)C=C2)c(=O)nc2snc(SCc3ccccc3)n12,0.632,0.3,-6.5%,-0.4,2.2,4.9,-0.2
COCCn1c(C)cc(C(=O)COC(=O)c2[nH]c(C)c(C(C)=O)c2C)c1C,0.662,6.9,12.3%,-0.8,-3.1,-1.5,-6.7
O=C(CSc1nnc(-c2ccc(Cl)s2)o1)N1CCCc2ccccc21,0.762,nt,?,nt,-1.1,3.0,0.1
COc1ccc(CN2CC[C@H]3C=CC[C@@H](C(=O)Nc4ccc(Cl)c(C(F)(F)F)c4)[C@H]3C2=O)cc1OC,nt,0.5,nt,0.6,0.9,nt,10.2
CC1CC2=C(CC1/C=N/NC(N)=S)C(C)(C)CCC2 (stereo not given),nt,-0.1,2.4%,-0.4,3.2,nt,1.0
O=C(c1ccc(Cl)s1)N1CCN(c2ccccc2)CC1,0.735,-2.1,8.8%,-0.3,0.9,4.4,-0.5
CCOC(=O)C1(Cc2cccc(OC)c2)CCCN(Cc2cnn(C)c2)C1 (stereo not given),0.702,-10.9,-4.0%,-0.4,2.0,2.9,-1.2
COc1ccc(NC(=O)c2ccc(-c3ccc([N+](=O)[O-])cc3)o2)cc1,0.71,-11.9,12.2%,0.9,0.6,7.2,7.5
COc1cc(OC)cc(C(=O)NN2CCCCC2)c1,0.656,-6.1,-3.7%,1.7,-0.6,2.1,-10.2
COc1ccc(C(=O)Nc2cccc(NC(=O)c3ccc(OC)c(OC)c3)n2)cc1OC,0.678,1.4,nt,-0.1,0.0,3.9,16.5
CN1C(C(=O)Nc2ccc(OC(F)(F)F)cc2)=CC(c2ccc3c(c2)OCO3)=NS1(=O)=O,0.647,-1.8,nt,0.2,1.9,-17.2,-2.2
COc1ccc(S(=O)(=O)N2CCCOC2CNC(=O)C(=O)NCCc2ccco2)cc1OC (stereo not given),0.702,1.9,0.9%,-0.7,-0.8,1.7,-7.3
O=S(=O)(Nc1cccc(CO)c1)c1cccs1,0.643,0.2,nt,-0.5,1.5,-1.1,-1.2

# Screens as filed in PubChem BioAssay.
